TSHR agonist: agonists of human thyroid stimulating hormone receptor. HEK293-CNG-TSHR cells (CNG channel as cAMP sensor), membrane potential dye, cAMP. 0.48% of 73,000 active. Potency, µM (series often up to 57.1 µM), for inactives: at the top dose activation, usual class: activators; active = well fitted activation curve of enough size with the parental cells flat; inconclusive = any curve in the parental cells; inactive = parental cells flat and receptor cells flat or falling; also: potency is read from the fitted curve at half-maximal effect; % of control where 0% means no effect; weak receptor curves with flat parental cells got no call and are not listed
Target sequence (P16473 whole entry, looked up): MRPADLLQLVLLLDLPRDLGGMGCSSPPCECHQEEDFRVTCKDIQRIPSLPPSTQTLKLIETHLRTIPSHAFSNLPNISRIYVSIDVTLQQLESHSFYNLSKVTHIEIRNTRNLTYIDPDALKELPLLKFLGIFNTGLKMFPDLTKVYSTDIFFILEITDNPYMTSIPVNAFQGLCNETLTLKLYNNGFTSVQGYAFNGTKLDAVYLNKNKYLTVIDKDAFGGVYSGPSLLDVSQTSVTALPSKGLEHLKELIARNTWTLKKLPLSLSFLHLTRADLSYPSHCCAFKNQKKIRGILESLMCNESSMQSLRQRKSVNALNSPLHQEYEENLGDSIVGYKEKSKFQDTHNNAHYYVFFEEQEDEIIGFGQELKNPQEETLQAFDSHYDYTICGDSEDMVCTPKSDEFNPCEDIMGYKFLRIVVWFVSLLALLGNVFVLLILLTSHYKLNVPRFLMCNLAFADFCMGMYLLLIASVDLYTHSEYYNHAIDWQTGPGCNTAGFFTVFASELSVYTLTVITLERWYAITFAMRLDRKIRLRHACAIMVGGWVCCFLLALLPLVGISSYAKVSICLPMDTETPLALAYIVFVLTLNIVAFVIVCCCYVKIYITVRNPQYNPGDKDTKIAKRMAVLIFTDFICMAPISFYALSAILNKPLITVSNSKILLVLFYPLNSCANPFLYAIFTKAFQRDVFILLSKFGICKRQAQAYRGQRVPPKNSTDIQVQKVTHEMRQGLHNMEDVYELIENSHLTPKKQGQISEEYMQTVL
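cAMP rise detected as CNG-channel membrane depolarization by fluorescent dye (emission 590 nm), 30 min after compound, following 60 min dye loading containing 100 uM RO 20-1724 at room temperature. Cells: TSHR/CNG HEK 293, with parental CNG HEK 293 as control.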
AID923: qHTS Assay for Allosteric/Competitive Inhibitors of Caspase-1: Spectroscopic Profiling in AFC Spectral Region; compound fluorescence, AFC spectral region (405/520 nm); almost no hit is shown here; Potency, µM (top dose mostly 57.5 µM), inactives show at the highest dose fluorescence increase, hits mostly activators; 1.1% of 75,000 active; active = well fitted activation curve with a large enough effect; inconclusive = small, poorly fitted or top-dose-only effect;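 also: potency is read from the fitted curve at half-maximal effect; 0% is about no effect; scaled to a free AFC standard on each plate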
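Baseline compound fluorescence (AFC region, 405 nm ex/520 nm em) taken from the intercept of kinetic reads with 50 nM caspase-1 and 5 uM Ac-WEHD-AFC; normalized to an on-plate AFC standard curve; compounds titrated up to 57 uM.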
A488 fluor: compound autofluorescence in A488 spectral region; compound autofluorescence, A488 spectral region, dye equivalency; stronger effect = higher value; max dye equivalency, M; 0.1% of 59,000 active; AID 591; active = above 10 nM dye equivalent; inconclusive = 1 to 10 nM; inactive = 1 nM or less; about half of its hits are not listed in these tables;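 also: highest value over a series up to 38 µM; compound alone in buffer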
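Spectroscopic profiling in the A488 region: compounds in pH 8.0 Tris (100 mM), 15 min RT, CCD imaging with 480 nm excitation and 540 nm emission; responses normalized against A488 dye standards.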
Resorufin fluor: resorufin region autofluorescence; Compound fluorescence, resorufin region 547/598 nm, buffer; stronger effect = higher value; max dye-equivalent concentration, M; 0.04% of 59,000 active; AID 588; active = above 10 nM dye equivalent; inconclusive = 1 to 10 nM; inactive = 1 nM or less; a few of its hits are not listed in these tables; also: highest value over a series up to 38 µM
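Intrinsic fluorescence profiled in the resorufin window (ex 547 nm, em 598 nm) after 15 min at room temperature in pH 8.0 Tris buffer (100 mM); responses normalized against a six-point resorufin standard series as dye-equivalent concentration.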
A647 fluor: compound fluoresces in the A647 spectral region; 59,000 tested, under 10 active; max dye-equivalent concentration, M; Compound fluorescence, A647 channel (570/671 nm), Tris buffer; AID 592; active means above 1 µM dye equivalent; inconclusive means 0.1 to 1 µM; inactive means 0.1 µM or less;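 also: values scaled relative to a standard on each plate; highest value over a series up to 38 µM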
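Tris 100 mM pH 8.0; cpd + A647 stds pin-transferred; 15 min RT; CCD imager, ex 570/em 671. Output = A647-equivalent conc. per cpd conc.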
An asterisk follows results filed as active; i = inactive; ? = inconclusive; . = not tested or not shown; & = joins results of further samples; [ ] = another dose, or the depositor's remark. An excerpt, so the mix of outcomes need not match the whole.

SMILES	TSHR agonist	AID923	A488 fluor	Resorufin fluor	A647 fluor
Cc1nn(C)c(C)c1S(=O)(=O)N1CCCC(C(=O)NC2CCCCC2)C1 (stereo not given)	7%	2.4%	i	i	1.2e-08
COc1ccc(CC(=O)N2CCNC2=O)cc1	5%	-1.4%	i	i	1.3e-08
CC[C@H]1OC(=O)[C@H](C)[C@@H](O[C@H]2C[C@@](C)(OC)[C@@H](O)[C@H](C)O2)[C@H](C)[C@@H](O[C@@H]2O[C@H](C)C[C@H](N(C)C)[C@H]2O)[C@](C)(O)C[C@@H](C)CN(C)[C@H](C)[C@@H](O)[C@]1(C)O	?	-6.2%	.	.	.
CC(C)Cn1cnc2c(Sc3c([N+](=O)[O-])ncn3C)nc(N)nc21	6%[11.4 µM]	1.1%[11.5 µM]	i	i	1.2e-08
Cc1cc(SCC#N)n2nc(C)c(-c3ccccc3)c2n1	-4%	-3.1%	i	i	5.9e-09
COc1ccc(C2NCCC3(O)CCCCC23)c(OC)c1OC (stereo not given)	1%	1.9%	i	i	4.1e-08
Cc1ccc(SCC(=O)NCCCN2CCOCC2)cc1	24%	3.0%	i	i	1.8e-09
O=S1(=O)C=C(SCCN2CCCCC2)c2ccccc21	9%[11.4 µM]	0.4%	.	.	.
CCOc1nc2c(c(=O)n(C)c(=O)n2C)n1Cc1ccccc1Cl	?	0.9%	i	i	1e-09
COc1cccc(Cn2c(=O)c(CCc3ccccc3)nc3cnc(N4CCN(C)CC4)nc32)c1	-14%	6.7%	i	i	1e-09
CSc1nc(C)c(C(=O)Nc2ccccc2)c(C)c1C#N	?	3.8%	i	i	1e-09
Cc1nc2nc(SCC(N)=O)[nH]c2cc1Br	5%	0.0%	i	i	3.7e-09
OC(COc1ccc(OCc2ccccc2)cc1)CN1CCOCC1 (stereo not given)	5%	-2.4%	i	i	2.6e-09
COC(=O)C1=CN(CCCN2CCCC2=O)C=C(C(=O)OC)C1c1ccccc1C(F)(F)F	18%	-0.9%	.	.	.
COc1ccc(C(=O)Nc2ccc(N3CCOCC3)cc2)cc1OC	-13%	-0.3%	.	.	.
CSc1nc(C)cc(NC(N)=O)n1	1%	-0.5%	i	i	3.4e-08
Cc1ccnc(N2C(=O)c3ccccc3C2Nc2ccc3c(c2)OCCO3)c1 (stereo not given)	20%	0.6%	.	.	.
Cc1cc(=O)oc2cc(OC(C)C(=O)N3CCCc4ccccc43)ccc12 (stereo not given)	?	-1.3%	i	i	2.5e-08
CCOC(=O)c1cc2oc(C)cc2n1CC(=O)OC1CCCCC1	?	4.2%	i	i	1e-09
Cc1ccc2nc(-c3ccccn3)cc(C(=O)N3CCN(c4ncccn4)CC3)c2c1	8%	0.3%	i	i	3.4e-09

Random excerpt: five entries already listed, in no set order.
SMILES	TSHR agonist	AID923	A488 fluor	Resorufin fluor	A647 fluor
OC(COc1ccc(OCc2ccccc2)cc1)CN1CCOCC1 (stereo not given)	5%	-2.4%	i	i	2.6e-09
O=S1(=O)C=C(SCCN2CCCCC2)c2ccccc21	9%[11.4 µM]	0.4%	.	.	.
Cc1ccc2nc(-c3ccccn3)cc(C(=O)N3CCN(c4ncccn4)CC3)c2c1	8%	0.3%	i	i	3.4e-09
Cc1ccc(SCC(=O)NCCCN2CCOCC2)cc1	24%	3.0%	i	i	1.8e-09
Cc1cc(SCC#N)n2nc(C)c(-c3ccccc3)c2n1	-4%	-3.1%	i	i	5.9e-09

More structures follow:
SMILES	TSHR agonist	AID923	A488 fluor	Resorufin fluor	A647 fluor
CC(C(=O)NC(=O)NC1CCCCC1)N1CCN(c2ccccn2)CC1 (stereo not given)	-1%	-0.6%	i	i	6.6e-09
O=C(NCCO[N+](=O)[O-])c1cccnc1	2%	-2.1%	.	.	.
O=C(CCN1C(=O)c2ccccc2C1=O)Nc1sc2c(c1C(=O)NCc1ccco1)CCCC2	.	0.2%	i	i	1e-08
COc1ccccc1N1CCN(C(=O)c2oc3cc(C)c(C)cc3c2C)CC1	29%	-1.9%	i	i	3.6e-08
CCCC[C@H]1C[C@@H]1[C@@H]1N(P(=O)(c2ccccc2)c2ccccc2)C[C@@](O)(c2ccccc2)CC12CC2	1%	-2.5%	.	.	.
Cc1c(C(=O)c2no[n+]([O-])c2C(=O)c2cnn(C)c2C)cnn1C	8%	-0.4%	i	i	4.3e-09
O=C(Oc1ccccc1)N1CCC2(CCCN(c3ncccn3)C2)CC1	?	-0.1%	i	i	1e-09
CCCSc1nc(C)c(-c2csc(C(C#N)=C3CCCC3)n2)cc1C#N	3%[11.4 µM]	3.2%	i	i	2.8e-09
Cc1c(Cl)cccc1-n1nnnc1-c1cccs1	?	0.3%	i	i	1.8e-08
COc1ccc(NC(C)=O)cc1NC(C)C(=O)Nc1ccccc1F (stereo not given)	-5%	0.6%	i	i	2.6e-09
CCN1CCN(C(=O)c2ccc(NS(=O)(=O)c3ccccc3)cc2)CC1	8%	.	i	i	1e-09
COc1cc(OC)cc(-c2nc(-c3ccc(Br)cc3)no2)c1	1%[11.4 µM]	-1.3%	.	.	.
O=C(CCNS(=O)(=O)c1cccs1)Nc1nccs1	-1%	0.9%	i	i	1e-09
COc1cccc(C2CC(=O)Nc3cc4c(cc32)OCCO4)c1OC(C)C (stereo not given)	?	-3.3%	.	.	.
Cc1ccc(NC(=O)c2oc3ccccc3c2NC(=O)c2ccc3c(c2)OCO3)cc1	6%	2.3%	i	i	1e-09
COc1ccc(N2Cc3cccc(C(=O)NC(C)CCc4ccco4)c3C2=O)cc1 (stereo not given)	16%	-2.0%	.	.	.
CCOc1nc(-c2ccccc2)ccc1-c1noc(-c2cccnc2)n1	0%	1.8%	i	i	1e-09
CC(C)CC(=O)N1CCN(C(=O)c2cccc(F)c2)CC1	1%	4.3%	.	.	.
CCCCc1ccc(NC(=O)N[C@H](C(=O)O)C(C)CC)cc1 (stereo not given in full)	5%	-0.2%	i	i	4.1e-08
Cc1cc(C(=O)NCC(c2ccco2)N(C)C)no1 (stereo not given)	2%	1.0%	i	i	1e-09
O=C(CSc1nnc(-c2ccccc2)n1Cc1ccccc1)N1CCOCC1	1%	0.6%	i	i	3.1e-08
O=C(Nc1ccccc1C(=O)NCc1cccnc1)c1ccco1	3%	1.7%	i	i	1e-09
CCCCCCC(=O)Nc1ccc(Cl)cn1	20%	-0.1%	i	i	3.5e-09
COc1ccc2[nH]c(C(=O)c3ccccc3)cc2c1	?	0.6%	.	.	.
CCOc1ccccc1/C=C(\C#N)C(N)=O	3%[11.4 µM]	-2.4%[11.5 µM]	i	i	1e-09
COC(=O)c1ccc(CN(C(C)=O)c2ccccc2)o1	.	.	i	i	1.9e-08
O=c1c2ccccc2nnn1Cc1nnc(-c2ccccc2Br)o1	14%	-2.4%	i	i	1.6e-08
Cc1ccc(CN2C(=O)CCC2C(=O)NC2CCCC2)cc1 (stereo not given)	-2%	0.0%	i	i	1e-09
COCCN1CCn2c(nc3cc(NC(=O)c4ccc(OC)cc4)ccc32)C1	3%	2.7%	i	i	4.7e-08
NC(=O)CNC(=O)C1CCCc2c1[nH]c1ccc(Cl)cc21 (stereo not given)	?	2.8%	i	i	3.7e-08
CCCCn1c(C(C)O)nc2ccccc21 (stereo not given)	9%	0.0%	i	i	4.1e-09
CCCN(CCC)CCNC(=O)Cn1cnc2sc(C)c(S(=O)(=O)N3CCOCC3)c2c1=O	3%	-1.0%	i	i	3.6e-08
COc1ccc(OC)c(NC(=O)CN2C(=O)c3ccccc3S2(=O)=O)c1	-6%[11.4 µM]	-1.6%	.	.	.
CCOC(=O)C1=C(CS(=O)(=O)c2ccc(F)c(C)c2)NC(=O)NC1c1ccc(O)c(O)c1 (stereo not given)	?	-1.7%	.	.	.
COC(=O)C(NC(=O)c1ccccc1)=C1CCCCC1	15%	-0.4%	.	.	.
COc1ccc(C(=O)CCC(=O)N2CCN(c3ccc(N4CCOCC4)nn3)CC2)cc1	-10%	11%	.	.	.
CCCn1c(C)nc2c(N(CCN(C)C)Cc3ccccc3)nc(C)nc21	?	3.3%	.	.	.
O=c1[nH]c(SCc2ccc(Cl)cc2)nc2c1CCC2	6%	4.6%	i	i	6.1e-09
COc1cccc(C2=NOC(C(=O)NCC3CCCO3)C2)c1 (stereo not given)	3%	0.3%	i	i	1.3e-09
Cc1sc2ncnc(NCCCn3ccnc3)c2c1C	0%	0.6%	i	i	2.6e-08
CCCCCC[C@@H]([C@H](C)O)n1cnc2c(N)ncnc21	?	-2.4%	i	i	1.2e-09
CN(c1ccccc1C(=O)N1CCCC1)S(C)(=O)=O	-14%	-2.4%	i	i	1.1e-08
CCOC(=O)C1=C(C)NC(=O)NC1c1ccoc1 (stereo not given)	-5%	-2.2%	i	i	1e-09
CCOc1ccc(S(=O)(=O)n2c(C)nc3ccccc32)cc1	9%	1.0%	.	.	.
O=C(O)CCC1=C2c3ccccc3CCN2C(=O)CC1	2%	-0.7%	i	i	1.2e-08
Cc1ccc(NC(=O)NC2CCN(CC(=O)Nc3nccs3)CC2)cc1	3%	0.1%	i	i	1e-09
Cc1cc(-c2nnc(SCc3cccnc3)o2)no1	0%	-1.4%	i	i	1.3e-09
CCOC(=O)NC(Nc1cc(C)ccn1)(C(F)(F)F)C(F)(F)F	2%	2.7%	.	.	.
Cn1c(SCC(=O)NCC2CCCO2)nc2c([nH]c3ccccc32)c1=O (stereo not given)	9%[11.4 µM]	-0.5%	i	i	6.8e-09
COc1cc2c(cc1OC)C1Cc3ccc(OC)c(OC)c3CN1CC2 (stereo not given)	?	2.9%&0.1%	i	i	1e-09
O=C(CCn1nc(-c2ccccc2)c2ccccc2c1=O)NCC1CCCO1 (stereo not given)	7%	-0.1%	i	i	1e-09
CCCN1C2CCCC1CC(NC(=O)c1ccccc1OCC)C2 (stereo not given)	1%	-0.3%	i	i	3.1e-08
COCCN1C(=O)C(O)=C(C(C)=O)C1c1ccc(F)cc1 (stereo not given)	7%	2.0%	i	i	2e-08
CCCC(C(=O)NC1CCCC1)N(CC1CCCO1)C(=O)c1snc(C(N)=O)c1N (stereo not given)	?	3.3%	i	i	1e-09
Cc1nn(C)c(N)c1C(O)(c1nccn1C)C(F)(F)F (stereo not given)	?	0.0%	i	i	1e-09
O=C(Nc1sccc1C(=O)N1CCOCC1)c1cccnc1	3%	-1.2%	i	i	1.1e-08
CC1=c2c(oc3cc(O)c(Nc4c(C)cc(O)cc4O)c(C)c23)=CC(=O)C1=Nc1c(C)cc(O)cc1O	-15%[11.4 µM]	-1.7%[11.5 µM]	i	7.4e-08M*	9.9e-08
O=C(OCCCN1CCCCC1)c1ccc(O)cc1	20%	-0.1%	i	i	1e-09
CCOC(=O)C1CCCN(c2c(NCCCN(C)Cc3ccccc3)c(=O)c2=O)C1 (stereo not given)	-3%	0.2%	i	i	1.8e-08
CCOC(=O)C1CCCN(c2c(NCCCN(CC)c3ccccc3)c(=O)c2=O)C1 (stereo not given)	1%	0.9%	i	i	1.9e-08

(listing goes on)
SMILES	TSHR agonist	AID923	A488 fluor	Resorufin fluor	A647 fluor
COc1ccc(NC(=O)N2CC3(CCN(C(C)=O)CC3)C2)cc1	-1%	1.9%	i	i	2.3e-09
O=C(COc1ncnc2c(Cl)cc(Cl)cc12)N1CCCCC1	7%	-0.1%	i	i	3.2e-08
O=C(COc1ccc(Cl)cc1)N1CCN(Cc2ccc3c(c2)OCO3)CC1	-9%[25.6 µM]	0.7%	i	i	3.2e-08
O=C(NCCCN1CCOCC1)c1ccc(S(=O)(=O)N2CCOCC2)cc1	2%	0.6%	.	.	.

Ordered by SMILES length (descending): part of the list above
SMILES	TSHR agonist	AID923	A488 fluor	Resorufin fluor	A647 fluor
COc1cccc(Cn2c(=O)c(CCc3ccccc3)nc3cnc(N4CCN(C)CC4)nc32)c1	-14%	6.7%	i	i	1e-09
Cc1ccc(NC(=O)NC2CCN(CC(=O)Nc3nccs3)CC2)cc1	3%	0.1%	i	i	1e-09
CCCCCCC(=O)Nc1ccc(Cl)cn1	20%	-0.1%	i	i	3.5e-09

Source: PubChem BioAssay (National Center for Advancing Translational Sciences (NCATS))
